Screening results from PubChem.
Mtb growth: M. tuberculosis H37Rv growth inhibitors, H37Rv strain (AID 1626). one-dose inhibition, % at 10 µM; IC50 in µM for titrated hits. actives 0.95% (n = 220,000). M. tuberculosis H37Rv growth inhibition; higher % means a stronger effect;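 active means confirmed in a dose series; inconclusive means inhibition above 80% but not taken into the dose series; inactive means below 80% or under 30% at every dose of the series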;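 further: bacteria incubated seven days before Alamar blue readout; 0% = bacteria only wells and 100% = bacteria with antibiotic wells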
YopH inh: YopH tyrosine phosphatase inhibitors, primary screen, biochemical, fluorescence Ex485/Em525. AID 898, 2007. YopH tyrosine phosphatase [Yersinia enterocolitica]. actives 0.16% (n = 140,000). inhibition, %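 (about 10 µM by stock and volumes)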;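 active means inhibition of 50% or more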;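 further: controls were vehicle for no effect and minimum signal wells for full effect; inactives centre near -20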
Mtb bLac sens: beta-lactam sensitization of Mtb H37Rv, H37Rv; inhibition, % at 25 µM; M. tuberculosis H37Rv growth with meropenem, percent inhibition; hits of this screen are not shown here; actives 0.27% (n = 330,000);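 active means about 74% or more and at least 40 points above the plate without the antibiotic, then above 30% in a dose series; inconclusive means first-round hits that could not be retested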;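 further: growth measured after seven days incubation then overnight dye step; 0% = bacteria only wells and 100% = bacteria with antibiotic; twin plates without the antibiotic show which effects depend on it; some results filed as inactive read as strong as hits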
RecA splice inh: Mtb RecA intein splicing inhibitors, primary screen, biochemical, fluorescence, HTS; Protein RecA (Mycobacterium tuberculosis (strain ATCC 25618 / H37Rv)), P9WHJ3; cell-free RecA intein splicing; inhibition, %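 (about 9 µM by stock and volumes)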; actives 0.75% (n = 290,000); in the data active means inhibition above about 30%; inconclusive means no clear call, values can overlap the other calls;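 further: 0% = vehicle wells and 100% = reference inhibitor control wells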
Target sequence (P9WHJ3 whole entry, looked up, canonical isoform): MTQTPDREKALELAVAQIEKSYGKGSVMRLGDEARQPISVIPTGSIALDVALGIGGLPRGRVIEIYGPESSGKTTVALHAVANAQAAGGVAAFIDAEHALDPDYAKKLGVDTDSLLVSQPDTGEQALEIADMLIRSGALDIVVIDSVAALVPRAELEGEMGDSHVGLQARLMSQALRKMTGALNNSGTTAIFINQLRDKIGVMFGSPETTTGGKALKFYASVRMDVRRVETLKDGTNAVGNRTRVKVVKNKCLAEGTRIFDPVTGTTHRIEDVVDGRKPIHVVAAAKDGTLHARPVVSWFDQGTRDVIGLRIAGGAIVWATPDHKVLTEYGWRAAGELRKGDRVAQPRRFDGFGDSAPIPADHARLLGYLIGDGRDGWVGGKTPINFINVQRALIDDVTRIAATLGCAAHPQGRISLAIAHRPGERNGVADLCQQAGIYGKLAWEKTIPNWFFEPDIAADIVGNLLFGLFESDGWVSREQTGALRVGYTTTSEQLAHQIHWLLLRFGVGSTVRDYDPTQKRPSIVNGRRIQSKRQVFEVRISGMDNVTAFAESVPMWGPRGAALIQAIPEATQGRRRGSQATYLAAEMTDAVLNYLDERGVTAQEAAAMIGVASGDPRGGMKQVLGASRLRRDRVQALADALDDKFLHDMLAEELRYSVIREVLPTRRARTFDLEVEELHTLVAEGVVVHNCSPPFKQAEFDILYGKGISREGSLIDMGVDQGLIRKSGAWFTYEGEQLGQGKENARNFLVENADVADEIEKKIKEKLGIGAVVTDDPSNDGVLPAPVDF
Arbovirus anti: antivirals against arbovirus infection, primary screen, cell-based, full library, 10K replicate subset | arbovirus infection cell-based antiviral screen | inhibition, % at 10 µM | actives 0.37% (n = 200,000) | AID 1251, 2008;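 active means inhibition from about 30%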;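 further: bluetongue infection of BSR cells; cell survival read as ATP light after 72 h; 0% = infected wells without compound and 100% = uninfected wells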
Arbovirus anti repeat: second read-out of Arbovirus anti, no call of its own (marks repeat the call); inhibition, %; measured here: 10K subset replicate screen; many hits read low in the repeat;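 first of two repeat runs on a subset; 0% = infected and 100% = uninfected wells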
* = called active by the depositor; ? = inconclusive; / = not tested or not shown. Not all compounds are listed. The share of hits here may be higher or lower than overall.

SMILES	Mtb growth	YopH inh	Mtb bLac sens	RecA splice inh	Arbovirus anti	others
Cc1nn(C)c(C)c1N1C(=O)c2cccc3c(Br)ccc(c23)C1=O	-4%	-6	-3	/	5
COc1ccccc1NC(=O)NNC(=O)c1ccc2ccccc2c1	/	/	2	2.1	/
Clc1ccc(-c2nc(C3CCCCC3)no2)cc1	4%	/	6	2.6	5
CCOc1ccccc1NC(=O)CCS(=O)(=O)c1ccc2c(c1)CCN2C(C)=O	/	/	2	-2.1	/
O=C(Nc1ccc(NC(=O)C2CC2)cc1)c1ccco1	/	/	-4	1.3	/
CC(=O)/C=C1/SC(CC(=O)O)C(=O)N1c1ccccc1 (configuration not stated)	-9%	-9	-4	2.3	5
CN(C)S(=O)(=O)c1cccc(NC(=O)COC(=O)CCOc2ccccc2)c1	-4%	/	5	1.6	3
CCCNC(=O)CSc1nc2ccccc2c(=O)n1CCC	4%	/	5	-1.8	7
O=C(C1CC1)N1CCc2cc(Br)cc(S(=O)(=O)NCCN3CCOCC3)c21	-5%	8	7	1.0	8	Arbovirus anti repeat=1
Cc1ccc(-c2csc(N=C(N)N)n2)c(C)c1	70%	/	-3	5.2	/
CCCOc1ccc(C(NC(=O)CC(C)C)NC(=O)CC(C)C)cc1OC	-2%	-25	-4	1.0	4
Cc1ccc(SC(C)C(=O)NC2CC2)cc1 (configuration not stated)	/	/	-6	0.8	/
CCCSC1=C(C#N)C(c2cccs2)CC(=O)N1 (configuration not stated)	2%	/	-6	1.0	/
CN(Cc1ccccc1)C(=O)c1[nH]cnc1C(=O)N[C@@H](Cc1ccccc1)C(=O)OC(C)(C)C	/	/	-4	-1.0	/
CC(C)C(c1nnnn1CCc1ccccc1)N1CCN(C(=O)c2ccco2)CC1 (configuration not stated)	-2%	-3	/	1.8	-1
CN1CCN(C(=O)c2ccc3c(=O)n(-c4ccc(F)cc4)c(=S)[nH]c3c2)CC1	-1%	/	2	-2.2	2
O=C(CN1CC[n+]2c(-c3ccccc3)csc21)c1ccc(Br)cc1	2%	/	-2	0.7	/
CCCN(CCC)CCNc1c(NC2CCN(C(=O)OCC)CC2)c(=O)c1=O	2%	-29	0	2.2	5
COc1ccc(/C=C(/C(=O)Nc2ccccc2C(=O)N2CCCC2)c2ccccc2)cc1	-1%	-37	7	12	-21
CC1C=CCC2C(=O)N(c3ccccc3OC(=O)c3cccs3)C(=O)C12 (configuration not stated)	-1%	/	-1	4.5	-3
O=C1C2C(C(=O)N1c1nccs1)C1C=CC2C12CC2 (configuration not stated)	4%	/	0	0.8	-1
Cc1nnsc1C(=O)NC(C)C12CC3CC(CC(C3)C1)C2 (configuration not stated)	2%	-43	-1	1.1	7
O=C(N/N=C/C=C/c1ccccc1[N+](=O)[O-])c1cccs1	-1%	-25	-4	0.1	-1
Cc1ccc(CNC(=O)C(=O)c2cn(CC(=O)N3CCCC3)c3ccccc23)cc1	/	/	3	1.7	/
CCC(C)N1CCN(C(=O)c2cccs2)CC1 (configuration not stated)	1%	-15	-17	/	10
CCN(CC)CC#CCC(O)(c1ccccc1)c1ccc(Br)cc1 (configuration not stated)	1%	/	7	1.3	-16
CCCCN(C(=O)Cc1cccc(F)c1)c1c(N)n(CCC)c(=O)[nH]c1=O	7%	/	0	-0.9	5
Cc1nnc(N/N=C/c2ccccc2F)n1N	/	/	5	-4.1	/
O=C1C(=Cc2cccs2)C(=O)c2ccccc21	3%	-20	-2	-1.9	-7
Cc1ccc(NC(=O)c2ccncc2)cc1[N+](=O)[O-]	-6%	-24	-3	2.0	0
COc1ccc(S(=O)(=O)NCc2ccccc2)cc1Br	/	/	0	0.1	/
c1cncc(-c2nnc3n2CCC3)c1	-1%	-41	2	-3.8	9
Cc1[nH]c2ccccc2c1C(O)CN1CCC2(CC1)OCCO2 (configuration not stated)	-3%	/	3	-2.0	/
CCOC(=O)N1CCN(C(=O)/C(=C/c2cccc3ccccc23)NC(=O)c2ccc(OC)c(OC)c2)CC1	1%	-18	1	-1.5	6
CCOc1ccc(C(C)NC(=S)NCc2ccc(F)cc2)cc1 (configuration not stated)	/	/	-2	2.0	/
O=C(Nc1ccccc1)c1ccccc1NC(=O)C1CCCCC1	18%	-32	5	-2.8	1
Cc1cccc(C(=O)N(Cc2cccs2)C2CCS(=O)(=O)C2)c1 (configuration not stated)	/	/	-7	-1.5	/
O=c1oc(Nc2cccc(Cl)c2)nc2ccccc12	1%	/	5	0.1	-1
CCOc1ccc(N=C2NC(=O)C(CC(=O)Nc3ccccc3)S2)cc1 (configuration not stated)	3%	/	-1	-1.6	1
CCCc1c(C)nc(N2CCN(c3ccccc3F)CC2)[nH]c1=O	/	/	5	-3.8	/
COc1ccc(-n2cc(CN(C)C(C)c3ccncn3)c(-c3cccc(F)c3)n2)cc1 (configuration not stated)	37%	/	97	7.0	-5
CCOC(=O)C1CCCN(C2=NC(=O)/C(=C/c3ccc(OC)c(OC)c3)S2)C1 (configuration not stated)	/	/	-4	0.3	/
Fc1ccc2nc(C3CCN(Cc4nc(CC5CC5)no4)CC3)[nH]c2c1	-4%	/	-11	7.1	5
CCC(C)(C)NC(=O)C(OC(=O)c1cc2sccc2n1C)c1ccc(OC)cc1 (configuration not stated)	6%	-16	-5	-0.4	-4
O=C(CN1CCCCCC1)Nc1ccc(Cl)cc1F	/	/	8	-2.1	/
COc1ccccc1OCC(=O)N/N=C1\CCCCc2ccccc21	7%	/	-7	1.9	/
CN(C(=O)c1ccc(COc2ccccc2Cl)o1)c1ccccc1	/	/	-3	4.4	/
CC(C)C(=O)Nc1nnc(-c2ccco2)s1	-2%	/	6	-0.6	/
COc1ccc(N(CC(=O)Nc2ccc(F)cc2)S(=O)(=O)c2ccccc2[N+](=O)[O-])c(OC)c1	-6%	/	-3	6.1	-6
Cc1ccc(NC(=O)CCC(=O)N/N=C/c2ccc(O)cc2)cc1	/	/	0	-0.8	/
O=C(NN=C1CCCCCC1)c1cccnc1	-4%	/	4	-1.7	14
ClC(Cl)(Cl)c1nc2ccccc2n2nncc12	/	/	8	55*	/
COc1ccc(-c2noc(-c3ccccc3C(=O)NCc3ccco3)n2)cc1	6%	-3	36	19	-8
CCC(C)NC(=O)CN1C(=O)c2cccc3cccc1c23 (configuration not stated)	/	/	1	-0.9	/
C#Cc1ccc(CN2CCN(CCCc3ccccc3)C(CCO)C2)cc1 (configuration not stated)	/	/	-5	0.9	/
C=CCn1c(SCC(=O)NCc2ccco2)nc2sc3c(c2c1=O)CCCC3	0%	-29	2	0.4	13
Nc1[nH]n2c(=O)cc(-c3ccccc3)nc2c1N=Nc1ccccc1	?	-10	95	-2.4	-23
CN(C)C(=O)c1cc(C(=O)c2ccc(F)cc2F)c[nH]1	/	/	-3	-0.6	/
CCC1CCCCN1C(=O)c1cc(COc2ccc3ncccc3c2)on1 (configuration not stated)	12%	/	-5	2.3	2
CC1(C)N=C(SCC(=O)Nc2ccc(Cl)cc2)C(c2ccccc2)=N1	-8%	-40	2	/	-4

Other records.
SMILES	Mtb growth	YopH inh	Mtb bLac sens	RecA splice inh	Arbovirus anti	others
COc1ccc(OC)c(NC2=NC3(CCCC3)N=C(N)N2)c1	-1%	-7	-3	0.4	-13
COc1ccc(N2C(=S)NC3c4cc(Cl)ccc4OC2(C)C3C(=O)N(C)C)cc1 (configuration not stated)	-2%	/	-4	3.4	-6
C=C(C)CSc1nnc2n(Cc3ccccc3)c(=O)c3c4c(sc3n12)CCC4	/	-14	/	-1.7	1
Cc1ccc(S(=O)(=O)CCC(=O)Nc2nnc(-c3cccs3)o2)cc1	/	/	75	-2.1	/
O=C(/C=C/c1ccc(OCCCF)cc1)NCc1ccc(Cl)c(Cl)c1	0%	-37	-10	-0.1	0
Cc1ccc(C(=O)Nc2ccc(Cl)cc2C(=O)c2ccccc2)cc1	8%	-23	?	-0.2	/
CCN(CC)CCNC(=O)CCc1c(C)nc2c(c(C)nn2-c2ccc(C)c(C)c2)c1C	/	/	5	-1.2	/
COC(=O)[C@H](C)NC(=O)NCc1ccco1	-5%	-29	?	3.1	2
CCOC(=O)C1=C(C)Nc2nc3ccccc3n2C1c1cccs1 (configuration not stated)	4%	8	-2	-0.6	3
CCCS(=O)(=O)N1CCCC(C(=O)NCCN(C)Cc2ccccc2)C1 (configuration not stated)	-3%	11	2	-2.1	0
O=C(Nc1cccc(Br)c1)c1cc2ccccc2o1	44%	-36	87	0.9	10	Arbovirus anti repeat=11
CC(C)CC(=O)c1c[nH]c(C(=O)NCc2cccnc2)c1	-1%	/	2	-1.4	2
CN(c1ccc(C(=O)NCCSCc2c(F)cccc2Cl)cc1)S(C)(=O)=O	-5%	/	13	-1.5	3
CC(=O)N1CCN(S(=O)(=O)c2cccc(C(=O)Nc3ccc4c(c3)OCO4)c2)CC1	5%	/	6	8.7	-25
COc1ccc(Cl)cc1NC1=NCC(C)S1 (configuration not stated)	-6%	10	-1	-0.1	3
COc1cccc(CNC(=O)C(=O)NCCC2CCCCN2S(=O)(=O)c2cccs2)c1 (configuration not stated)	/	/	-13	-1.0	/
CCN(CC)S(=O)(=O)c1ccc(N/N=C/c2ccc(OC)c(OC)c2OC)nc1	-1%	-1	-4	1.6	-9
O=C(CCNS(=O)(=O)c1ccc(Cl)cc1)N1CCOCC1	/	/	-9	2.9	/
CN(C)c1ccc(N=Nc2cccc(F)c2)cc1	/	/	5	2.4	/
COc1ccc(C(=O)C2CCCN(Cc3cn[nH]c3-c3ccc(F)cc3)C2)cc1OC (configuration not stated)	1%	/	-1	-0.4	0
CCN(CC)c1ccc(NC2CC(=O)N(CCc3ccc(OC)cc3)C2=O)cc1 (configuration not stated)	-1%	/	3	-4.3	/
CC(C)CN1C2CCCC1CC(NC(=O)c1ccc([N+](=O)[O-])cc1)C2 (configuration not stated)	/	/	-15	0.8	/
COc1ccc2c(c1)OC(O)(C(F)(F)F)CC2=O (configuration not stated)	4%	-24	-2	-2.8	15
O=c1nc2sc3ccccc3n2c(=O)n1-c1ccc(Cl)cc1	13%	/	-3	2.8	7
NNC(=O)CNC(=O)c1ccc(F)cc1	-3%	-4	5	0.3	-11

2 compounds drawn at random from the list so far, as already listed:
SMILES	Mtb growth	YopH inh	Mtb bLac sens	RecA splice inh	Arbovirus anti	others
O=C(Nc1cccc(Br)c1)c1cc2ccccc2o1	44%	-36	87	0.9	10	Arbovirus anti repeat=11
O=c1oc(Nc2cccc(Cl)c2)nc2ccccc12	1%	/	5	0.1	-1

Structural class: the compounds so far containing an NH in an aromatic ring.
SMILES	Mtb growth	YopH inh	Mtb bLac sens	RecA splice inh	Arbovirus anti	others
CN(Cc1ccccc1)C(=O)c1[nH]cnc1C(=O)N[C@@H](Cc1ccccc1)C(=O)OC(C)(C)C	/	/	-4	-1.0	/
CN1CCN(C(=O)c2ccc3c(=O)n(-c4ccc(F)cc4)c(=S)[nH]c3c2)CC1	-1%	/	2	-2.2	2
CCCCN(C(=O)Cc1cccc(F)c1)c1c(N)n(CCC)c(=O)[nH]c1=O	7%	/	0	-0.9	5
Cc1[nH]c2ccccc2c1C(O)CN1CCC2(CC1)OCCO2 (configuration not stated)	-3%	/	3	-2.0	/
CCCc1c(C)nc(N2CCN(c3ccccc3F)CC2)[nH]c1=O	/	/	5	-3.8	/
Fc1ccc2nc(C3CCN(Cc4nc(CC5CC5)no4)CC3)[nH]c2c1	-4%	/	-11	7.1	5
Nc1[nH]n2c(=O)cc(-c3ccccc3)nc2c1N=Nc1ccccc1	?	-10	95	-2.4	-23
CN(C)C(=O)c1cc(C(=O)c2ccc(F)cc2F)c[nH]1	/	/	-3	-0.6	/
CC(C)CC(=O)c1c[nH]c(C(=O)NCc2cccnc2)c1	-1%	/	2	-1.4	2
COc1ccc(C(=O)C2CCCN(Cc3cn[nH]c3-c3ccc(F)cc3)C2)cc1OC (configuration not stated)	1%	/	-1	-0.4	0
